# Bioassay records: PubChem BioAssay, ICCB-Longwood Screening Facility, Harvard Medical School
# AID504770: growth inhibition of E. coli YBA685, primary screen, V. cholerae RctB inhibitors | E. coli YBA685 rctB-dependent plasmid, OD600 growth, 3 h; stronger effect = lower value | 130,000 compounds, 0.27% hits | z-score (test concentration not listed) | AID 504770, 2011;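 active = z-score under -2 on both plates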;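 note: wells of about 30 µL received 100 nL stock; score is relative to mean and SD of the test wells; the first replicate is given; strong numbers were not always called active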
# CapD inh: Bacillus anthracis CapD inhibitors, primary screen, biochemical, fluorescence intensity; CapD gamma-glutamyltranspeptidase (Bacillus anthracis Ames Ancestor); purified CapD enzyme, fluorescence intensity read-out; stronger effect = lower value; some hits fall short of the stated cut; z-score (concentration not given with the values); 140,000 compounds, 0.23% hits; AID 492967, 2010;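 active = z-score under -4 in either of two replicates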;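 note: stock transfer was 100 nL into about 40 µL; score is relative to mean and spread of the plate; one replicate is shown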
# Active calls of the source: *; i = inactive; nt = not tested or not shown; & = joins results of further samples.
SMILES,AID504770,CapD inh
Cc1onc(-c2c(Cl)cccc2Cl)c1C(=O)Oc1ccc(Cl)c(Cl)c1,nt,0.17
O=C1CCCC(O)=C1C1c2ccccc2OC2CCCC(=O)C21 (centres undefined),-0.4,-0.24
CC(C(=O)O)N1c2cccc3cccc(c23)S1(=O)=O (centres undefined),2.6,nt
O=C1CC(c2ccc(S(=O)(=O)N3CCCc4ccccc43)cc2)CN1 (centres undefined),-0.7,-0.55
CCCCn1c(CCNC(=O)C(C)(C)C)nc2ccccc21,-1,-0.65
CCOC(=O)C1CCCN(CC(=O)Nc2ccc(C(=O)Nc3ccccc3OC)cc2)C1 (centres undefined),0.2,nt
Cc1cccc(C)c1NC(=O)C(Cc1c[nH]c2ccccc12)NC(=O)Oc1ccccc1 (centres undefined),nt,-0.53
Cn1cc(NC(=O)N(CCO)Cc2ccccc2)c2ccccc21,-1.2,nt
Cc1ccccc1Nc1ncnc2c1cnn2-c1ccccc1,-0.8,-0.75
CCOC(=O)c1sc2nc(SCC(=O)C(C)(C)C)n(CC3CCCO3)c(=O)c2c1C (centres undefined),nt,1.3
CCC(=O)c1cc(-c2nc3ccccc3n2C)n(C)c1,3.5,2.5
O=C(O)C1CC1C(=O)Nc1ccc(Oc2ccc(F)cc2)nc1 (centres undefined),1.7,-0.61
O=C(NCc1ccccc1Cl)c1cc2ccccn2n1,0.3,-0.56
CCOc1ccc(C(c2nnnn2C(C)C)N2CCN(c3cccc(Cl)c3)CC2)cc1 (centres undefined),0,nt
CO/N=C/NC(=O)c1c(OC)ccnc1Oc1cccc(C(F)(F)F)c1,nt,-0.42
CCCc1ccc(/C=N/NC(=O)c2ccccc2CCc2ccccc2)cc1,nt,0.16
COC(=O)C(C#N)=C1CCCC1,-0.5,nt
COc1ccc(CCNc2nc(C)nc3c2nnn3Cc2ccccc2)cc1OC,-0.1,nt
CC1(C)CC(=O)C2=C(C1)Nc1ccccc1N(C(=O)c1ccccc1)C2c1ccc([N+](=O)[O-])s1 (centres undefined),nt,-1.1
Cc1ccc(C)c(N2CCN(c3ncnc4nc[nH]c34)CC2)c1,0.4,-0.73
Cc1cccc(-n2cnc(C(=O)N3CCN(c4cccc(Cl)c4)CC3)c2)n1,nt,-0.65
COc1cccc(N2C(=O)/C(=C/c3ccc(-c4ccc([N+](=O)[O-])cc4)o3)C=C2c2ccccc2)c1,nt,-0.65
Cc1ccc(-n2c(Cc3cccn3C)nnc2SCC(=O)N2CCN(c3ccccc3)CC2)cc1,0.3,1.4
O=C(Nc1ccnn1Cc1ccccc1)c1cccnc1SC(F)F,-0.5,nt
Cc1cccc(C(=O)OCC(=O)NC2CCCCCC2)c1O,-0.05,0.05
# Next part:
SMILES,AID504770,CapD inh
CCOC(=O)c1cnc(SC(C)C(=O)N2CCCc3ccccc32)nc1N (centres undefined),0.8,-0.24
CS(=O)(=O)c1cnc(-c2ccc(C(F)(F)F)nc2)nc1-c1cccc(C(F)(F)F)c1,nt,-0.36
O=C(NC(Cc1ccccc1)C(=O)N1CCCc2ccccc21)c1ccco1 (centres undefined),-0.3,nt
CC1CCC2(C)c3[nH]c4ccccc4c3CCN2C1=O (centres undefined),0.35,-0.12
N#CC1=C(N)Oc2n[nH]c(-c3ccc(Br)cc3)c2C1c1ccc(OC(=O)N2CCOCC2)cc1 (centres undefined),nt,-0.35
CCn1cc(C2=NOC(C(=O)Nc3cccnc3)C2)c(C)n1 (centres undefined),0.1,-0.4
CC(C)(O)C#Cc1ccc(COC(=O)NCCc2ccccn2)cc1,nt,-1
Cc1ccccc1-c1nnc(SCC(=O)N2c3ccccc3Sc3ccccc32)o1,-0.45,nt
COc1ccc(C(CNC(=O)NCC(c2ccc(OC)cc2)N2CCCCC2)N2CCCCC2)cc1 (centres undefined),0.7,nt
O=C1CCC(C(=O)O)(c2ccccc2)C1 (centres undefined),-0.8,-0.055
N#CC1(C#N)[C@H](C(N)=O)[C@H]1c1ccccc1,0.2,0.41
C=CCN1C(=O)/C(=C\c2cn(CCOc3ccccc3OC)c3ccccc23)SC1=S,-0.15,-0.6
CC(C)n1nccc1/N=C1\N=C(N)c2ccccc21,0.15,nt
O=C(COc1ccc2c(c1)C(=O)CC1(CCCCC1)O2)NC1CC1,0.6,9.2
COC(CN1C(=O)c2ccccc2C1=O)OC,-0.35,nt
N#CC(C#N)=C(N)C(C#N)Cc1ccc(C#N)cc1 (centres undefined),0.45,nt
COc1ccccc1NC(=O)[C@H](Cc1ccccc1)NC(=O)c1ccco1,-0.6,nt
Cc1cccc(NC(=O)CN2C(=S)NC(C)(C)CC2C)c1C (centres undefined),1.1,-0.45
O=C(CCC(=O)N1CCOc2ccccc21)NCC1CCCO1 (centres undefined),-0.1,-0.045
COC(=O)c1cc2ccccc2s1,nt,0.7
Nc1ccccc1SC1CC(=O)N(c2ccc3c(c2)OCCO3)C1=O (centres undefined),0.45,-0.15
Cc1cc(C)c2c(CC(=O)N(C)C)coc2c1,0.7,2.1
COc1ccc(CCn2c(-c3cc(C)ccc3C)csc2=Nc2ccc(F)cc2)cc1OC,nt,-0.48
COC(=O)C(CC(=O)Nc1cc(C)ccc1C)Nc1ccccc1OC (centres undefined),0.6,nt
CC1(C)CC(=O)C2=C(C1)NC1=C(C(=O)c3ccccc31)C2c1ccc(O)c(O)c1 (centres undefined),nt,-1.4

# Entries shown so far that contain a Cl atom (four):
SMILES,AID504770,CapD inh
Cc1onc(-c2c(Cl)cccc2Cl)c1C(=O)Oc1ccc(Cl)c(Cl)c1,nt,0.17
O=C(NCc1ccccc1Cl)c1cc2ccccn2n1,0.3,-0.56
CCOc1ccc(C(c2nnnn2C(C)C)N2CCN(c3cccc(Cl)c3)CC2)cc1 (centres undefined),0,nt
Cc1cccc(-n2cnc(C(=O)N3CCN(c4cccc(Cl)c4)CC3)c2)n1,nt,-0.65

# Other compounds follow.
SMILES,AID504770,CapD inh
CN1CCCSC1=Nc1ccccc1F,0.15,nt
Cc1ccc2nc3n(c(=O)c2c1)CCCc1nn(-c2nc(C)cc(C)n2)c(N)c1-3,0.25,nt
O=C1C[C@H](N2C(=O)CCC2=O)C2CO[C@@H]1O2,-0.75,0.22
COc1ccc2cc(C(C)C(=O)NCc3ccccc3)ccc2c1 (centres undefined),-0.2,2.7
OC(COc1ccccc1)Cn1cnc2ccccc21 (centres undefined),1.1,-0.07
CC1=NN(c2ccccc2)C(=O)/C1=C\c1ccc(Cl)cc1,nt,-0.38
NC(N)=NC(N)=Nc1cc(Cl)ccc1Cl,nt,0.14
COc1cccc(/C=C2\SC(=S)N(CCCC(=O)N3CCN(c4ccccc4)CC3)C2=O)c1,nt,-0.08
CN(C)c1nc2ccccc2n2cnnc12,0.05,52
Cc1sc2nc(NCCO)[nH]c(=O)c2c1C,-0.05,nt
COc1cc(/C=N/NC(=S)NCC2CCCO2)cc(OC)c1OC (centres undefined),nt,-0.58
COc1ccc(-n2cc(C(=O)N3CCCN(Cc4ccccc4F)C3)c3ccccc3c2=O)cc1,-0.05,3.1
Fc1ccc(-c2cnc(CSc3nnc(-c4ccccc4)n3-c3ccc(F)cc3)o2)cc1,1.1,nt
Cc1ccc2nc(NCCCN3CCOCC3)c3nncn3c2c1,1.1,1.6
Cc1cnc(C(=O)NCc2c(Cl)cccc2Oc2ccccc2)cn1,-0.3,1.1
CCC(C)NC(=O)CSc1nc2ccsc2c(=O)n1NC(=O)c1ccccc1 (centres undefined),-3,-1.1
CC(=O)n1c2ccccc2c2ccccc21,-0.4,0.29
CC(C)(C)Nc1nc(OCC#N)nc(N2CCOCC2)n1,2.2,nt
Nc1cc(=O)[nH]c(SCc2ccccc2CSc2nc(N)cc(=O)[nH]2)n1,1.9,-0.36
COc1cc(C2C(C(=O)Nc3ccc(C)cc3)=C(C)Nc3nnnn32)ccc1OCc1ccccc1 (centres undefined),nt,0.2
CC1(C)CC2CC(C)(CN2Cc2cccnc2)C1 (centres undefined),1.6,-0.48
CCN(CC)S(=O)(=O)c1ccc2[nH]cc(C(=O)NCc3ccc(F)cc3)c(=O)c2c1,-0.55,0.16
COC(=O)c1ccc(Cl)c(-c2ccc(/C=N/n3cnnc3)o2)c1,0.65,nt
CCCNS(=O)(=O)c1ccc2[nH]c(=O)[nH]c2c1,1.1,nt
COC(=O)C1=C(C)NC(=O)/C1=C\c1cccc2ccccc12,1.4,3.1
# More results follow.
SMILES,AID504770,CapD inh
COc1ccc2c(c1)-c1c(ssc1=S)C(C)(C)N2C(=O)CN1CCCCC1,nt,-0.33
Cc1ccc(C(=O)N2CCN(C(=O)CC3(CC(=O)O)CCCC3)CC2)cc1,nt,-0.45
O=C(CN1C2=NCCCN2c2ccccc21)c1ccco1,-3,5.6
O=C(COc1ccc(Cl)cc1Cl)NCc1nnc(SCC(=O)N2CCc3ccccc32)n1-c1ccc(F)cc1,nt,0.34
Cc1cc(C)n2c(NC(C)C)c(-c3ccc(C)o3)nc2n1,-0.25,0.18
COc1ccc2c(c1)c(CC(=O)OCC(=O)O)c(C)n2C(=O)c1ccc(Cl)cc1,0.45,0.14&-0.63
CN1CCN(C(=O)CCCC(=O)N2CCC(c3nc(-c4cccc(C(F)(F)F)c4)no3)CC2)CC1,nt,-0.095
COc1ccc(NC(=O)c2cncc(NS(=O)(=O)c3ccc(C)cc3)c2)cc1OC,-0.05,1.8
Cc1cccc(N(CC(N)=O)C2SC(=O)N(c3ccccc3)C2=O)c1 (centres undefined),-0.8,0.1
CCOC(=O)Cc1c(O)c2ccccc2[nH]c1=O,-0.75,2.4
CCOC(=O)N1CCN(c2cc3cc(OC)ccc3oc2=O)CC1,-1,nt
CCc1cccc(C(C)C)c1NC(=O)Nc1ccccc1,-0.5,0.34
CCC1C(=O)NN=C1C (centres undefined),2,nt
Cc1nnsc1-c1nc(CSc2ccc(Cl)cc2)no1,-0.9,-0.43
COc1ccc(CC(=O)N(C)C)cc1,0.65,0.57
COc1ccc(-c2c(C(F)(F)F)oc3c(CN4CCN(C)CC4)c(O)ccc3c2=O)cc1OC,nt,-0.55
O=C(Cn1c(=O)cnc2ccccc21)NC1CCCc2ccccc21 (centres undefined),-0.7,nt
Cc1cc(C(=O)COc2ncnc3ccccc23)c(C)n1C,1.5,nt
CCN(CCC#N)C(=S)Nc1cc(C(F)(F)F)cc(C(F)(F)F)c1,-0.05,-0.07
CC(C)Cn1c(=O)c2sccc2n2c(CCCC(=O)O)nnc12,-0.5,0.98
Cc1cccc(-c2nc(SCc3cccc(F)c3)c(C#N)c3c2CCCC3)c1,nt,-0.67
Cc1ccc(NC(C)C(=O)N/N=C/c2ccc(N(C)C)cc2)cc1 (centres undefined),-0.5,10
COC(=O)C1=C(NC(=O)/C=C/c2ccccc2)CCS1,-0.45,i
CCCc1cnc(N2CCCN(C(=O)OC(C)(C)C)CC2)nc1,nt,26
CN(C)NC(=S)NCc1ccc(F)cc1,-0.25,-0.49

# One compound at a time (already shown). Screens in order: AID504770	CapD inh
# COc1ccc(CC(=O)N(C)C)cc1 is listed as 0.65	0.57
# Cc1ccc(C(=O)N2CCN(C(=O)CC3(CC(=O)O)CCCC3)CC2)cc1 is listed as nt	-0.45
# Cc1cc(C)n2c(NC(C)C)c(-c3ccc(C)o3)nc2n1 is listed as -0.25	0.18
# CCCc1cnc(N2CCCN(C(=O)OC(C)(C)C)CC2)nc1 is listed as nt	26
# CN(C)NC(=S)NCc1ccc(F)cc1 is listed as -0.25	-0.49

# (list continues)
SMILES,AID504770,CapD inh
O=C(O)CS/C=C/c1ccccc1,nt,0.45
O=C1C2CCN(CC2)C12CC2c1ccc(C(F)(F)F)cc1 (centres undefined),0.45,0.95
COc1ccc(S(=O)(=O)N2CCN(C/C=C/c3ccccc3)CC2)cc1C,-0.45,0.015
CN(c1ccccc1C(=O)O)S(=O)(=O)c1ccc2[nH]c(=O)[nH]c2c1,0.65,1
CCCS(=O)(=O)Nc1ccccc1C(=O)NCc1ccccc1,1.9,nt
OC1(c2ccc(F)cc2)CCNC1 (centres undefined),0.3,-0.04
c1nc(SCc2ccc3c(c2)OCO3)c2[nH]cnc2n1,-0.9,-0.29
Cn1c(=O)oc2cc(S(=O)(=O)N3CCc4ccccc43)ccc21,-1.4,-0.05
Cc1c(C(=O)N2CCN(c3ccccn3)CC2)sc2ncnc(N(C)c3ccccc3)c12,nt,0.19
Cc1nc(N2CCC(C)CC2)c2c(C)c(C(=O)Nc3cnc4ccccc4c3)sc2n1,nt,4.4
CCOC(=O)c1sc(NC(=O)CSC2=NN3CCCC(=O)N=C3S2)c(C(=O)OCC)c1C,0.8,nt
CC1(C)Cc2c(cnn2-c2ccc(F)cc2)-c2nc3ccccc3nc21,-0.4,48
Cc1cc(C)n2cc(CSc3nc4ccc([N+](=O)[O-])cc4[nH]3)nc2n1,nt,-0.3
COc1ccc(C2=NN(C(=O)c3ccc(Br)o3)C(c3ccccc3Cl)C2)cc1OC (centres undefined),nt,0.35
COC(=O)c1nn(-c2ccccc2)c(Sc2ccccc2)c1/C=N/O,nt,-0.07
CCN(CC)C(=O)c1ccc(CS(=O)(=O)c2ccccc2C)o1,0.05,8.2
Cc1ccc(NC(=O)OCc2cn(-c3ccc(Cl)c(Cl)c3)nn2)cc1,nt,0.06
O=C(Nc1cccnc1Sc1ccc(Cl)cc1)C1CC1,0.55,0.9
COC(=O)C1=C(N)OC2=C(C(=O)CCC2)C1c1ccc(OCc2ccccc2F)cc1 (centres undefined),-0.7,0.12

# Gathered by group, those above with a tert-butyl group.
SMILES,AID504770,CapD inh
CCCCn1c(CCNC(=O)C(C)(C)C)nc2ccccc21,-1,-0.65
CCOC(=O)c1sc2nc(SCC(=O)C(C)(C)C)n(CC3CCCO3)c(=O)c2c1C (centres undefined),nt,1.3
CC(C)(C)Nc1nc(OCC#N)nc(N2CCOCC2)n1,2.2,nt
CCCc1cnc(N2CCCN(C(=O)OC(C)(C)C)CC2)nc1,nt,26

# Hits appear at their usual frequency. Share with any hit: about 0.37%.
